High-throughput results deposited in PubChem by several laboratories.
Env fusion inh: inhibitors of HIV-1 Env-driven cell-cell fusion, primary screen, HeLa-JRFL effector, CEM21 target cells, luciferase; inhibition, % at 12.3 µM; 1.1% of 360,000 active;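 active means mean replicate inhibition score of at least 50 and every replicate individually at or above 50; inconclusive means only one of the two criteria met; inactive means mean below 50 and not all replicates reaching 50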;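 further: 0% = plate neutral controls and 100% = maraviroc near 300 nM; one replicate is shown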
Yeast UUG start: modulators of yeast start codon fidelity, primary screen, whole organism, S. cerevisiae, single point, plate reader | AID 602363, 2012 | 0.13% of 350,000 active | activity score, % at 18.7 µM | S. cerevisiae UUG-firefly luciferase reporter, luminescence/redox ratio;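 active means replicate mean at a twofold rise or more, about +100% in these data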;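 further: firefly luciferase made from a UUG start codon reports start codon fidelity; reporter light over untreated wells divided by growth signal over untreated wells; some hits fall short of that in this replicate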
eIF4H inh: human eIF4H binding inhibitors, primary screen, translation initiation inhibitor project, biochemical, uHTS, fluorescence polarization; eIF4H fluorescence polarization binding assay; inhibition, % at 35 µM; 0.94% of 290,000 active; Eukaryotic translation initiation factor 4H (Homo sapiens), Q15056;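 active means 50% or more with normal probe brightness, or confirmed in later tests; inconclusive means above 50% with abnormal brightness, or retests that disagree; inactive means below 50% or failed in later tests; about a fifth of its hits are not listed in these tables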;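 further: calls also rest on retests at 20 µM and on dose response follow-up; 0% = protein and probe with vehicle and 100% = probe without protein; strong numbers were not always called active; many hits fall short of the cut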
CSC inhib: cancer stem cell viability inhibitors, primary screen, luminescence; 1.1% of 300,000 active; cancer stem cell-like cells viability; inhibition, % at 7.5 µM;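 active means mean at 75% or more and at least half the replicates too; inconclusive means mean and replicates disagree; tested in HMLE shEcad cells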;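 further: 0% = median of negative and 100% = median of positive control wells; the first replicate is given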
MT1-MMP act inh: blockers of MT1-MMP proenzyme processing, primary screen, HT1080 RFP-PRO-GFP cells, GFP/RFP fluorescence. Matrix metalloproteinase-14 (Homo sapiens), P50281. GFP/RFP ratio fluorescence, overnight; percent of plate control window, DMSO zero. GFP/RFP ratio change, % at 20 µM. 0.061% of 360,000 active. AID 651647, 2012;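 active means GFP/RFP ratio change of at least 30% with cell ATP level not reduced by more than half and red fluorescence within 50% of control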; further: strong numbers were not always called active
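Material: RFP-PRO-GFP reporter HT1080 cells. Dosing: single-point 20 µM compound, 1% DMSO. Controls: DMSO and RFP-L50D-GFP cell wells. Timing: cells overnight before dosing, compound overnight, 37 °C, 5% CO2. Measure: GFP/RFP fluorescence ratio.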
PABP FP inh: PABP poly(A) RNA binding inhibitors, primary screen, biochemical, fluorescence polarization, uHTS; Polyadenylate-binding protein 1 (Homo sapiens), P11940; inhibition, % at 35 µM; 1% of 290,000 active; AID 2014, 2009;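 active means 50% or more with normal probe brightness, or confirmed in later tests; inconclusive means above 50% with abnormal brightness, or retests that disagree; inactive means below 50% or failed in later tests; about a fifth of its hits are not listed in these tables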;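 further: calls also rest on retests at 20 µM and on dose response follow-up; controls were probe without protein and protein plus probe with vehicle; some compounds called inactive have numbers as strong as hits; many hits fall short of the cut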
Target sequence (P11940 whole entry, looked up): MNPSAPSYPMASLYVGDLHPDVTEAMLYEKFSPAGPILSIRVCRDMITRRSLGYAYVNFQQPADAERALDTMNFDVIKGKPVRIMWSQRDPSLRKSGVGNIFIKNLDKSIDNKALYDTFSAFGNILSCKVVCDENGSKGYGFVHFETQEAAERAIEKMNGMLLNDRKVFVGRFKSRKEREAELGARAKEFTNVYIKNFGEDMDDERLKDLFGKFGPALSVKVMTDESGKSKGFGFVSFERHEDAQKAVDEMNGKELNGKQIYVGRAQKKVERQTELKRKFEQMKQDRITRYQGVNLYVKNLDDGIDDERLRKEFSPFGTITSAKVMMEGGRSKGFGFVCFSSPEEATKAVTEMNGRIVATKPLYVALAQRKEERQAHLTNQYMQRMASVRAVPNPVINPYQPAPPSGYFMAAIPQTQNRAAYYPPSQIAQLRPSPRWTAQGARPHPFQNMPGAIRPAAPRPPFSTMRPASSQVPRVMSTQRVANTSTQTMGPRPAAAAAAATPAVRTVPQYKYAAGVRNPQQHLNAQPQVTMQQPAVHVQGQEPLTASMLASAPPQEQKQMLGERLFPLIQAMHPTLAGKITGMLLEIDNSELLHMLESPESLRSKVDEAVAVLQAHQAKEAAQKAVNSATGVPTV
Rce1 inhib: yeast Rce1p protease inhibitors, primary screen, biochemical, fluorescence, cell-free homogeneous | CAAX prenyl protease 2 (Saccharomyces cerevisiae (strain ATCC 204508 / S288c)), Q03530 | yeast membranes, quenched prenylated peptide cleavage fluorescence | calls only | 0.27% of 290,000 active | AID 2563, 2010;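 active means fall in fluorescence gain of 50% or more versus controls, with final raw signal at or below 3038400; inconclusive means same 50% fall but final raw signal above 3038400; inactive means fall in fluorescence gain under 50%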;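 further: plate controls were neutral control wells for no effect and wells lacking membranes for full effect; tested at 10 µM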
Target sequence (Q03530 whole entry, looked up): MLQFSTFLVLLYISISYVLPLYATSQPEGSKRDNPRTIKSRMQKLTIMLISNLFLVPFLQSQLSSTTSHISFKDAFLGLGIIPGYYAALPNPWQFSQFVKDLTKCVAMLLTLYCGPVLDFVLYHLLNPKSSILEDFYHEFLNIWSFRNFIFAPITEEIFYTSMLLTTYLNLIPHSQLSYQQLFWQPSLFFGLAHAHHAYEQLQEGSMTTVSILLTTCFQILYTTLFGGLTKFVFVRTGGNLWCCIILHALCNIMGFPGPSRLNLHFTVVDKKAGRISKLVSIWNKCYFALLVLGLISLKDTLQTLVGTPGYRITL
eIF4H inh retest: second read-out of eIF4H inh, no call of its own (marks repeat the call); inhibition, %; compound at 20 µM; confirmation average;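 mean of two retest wells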
PABP FP inh retest: also measured in PABP FP inh; calls as there; inhibition, %; compound at 20 µM; confirmation repeats;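 mean of two retest wells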
MT1-MMP act inh RFP: recorded beside MT1-MMP act inh, whose call it bears; RFP signal change, %; measured here: RFP expression control read;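 0 = vehicle wells; hits needed this value within 50% of zero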
Numbers without * were called inactive; i = inactive; ? = inconclusive; . = not tested or not shown. Some of the compounds tested, so the mix of outcomes need not match the whole.

SMILES | Env fusion inh | Yeast UUG start | eIF4H inh | CSC inhib | MT1-MMP act inh | MT1-MMP act inh RFP | PABP FP inh | Rce1 inhib | others
O=C(COc1cccc(Cl)c1)N/N=C\c1cc2ccccc2nc1Cl | -88 | 2 | -3 | -3 | -3 | 5 | 0 | i
COc1ccccc1C1/C(=C(/O)c2ccccc2)C(=O)C(=O)N1CC(C)O (centres undefined) | . | -20 | 8 | . | 0 | 0 | 10 | i
Cc1ccc2sc3ccc(NC(=O)c4ccccc4Cl)cc3c(=O)c2c1 | -30 | -8 | -2 | 57 | 5 | -6 | -6 | i
O=S(=O)(c1ccccc1)N1CCN(CCc2ccccc2)CC1 | 24 | -13 | -7 | 7 | 4 | -4 | 4 | i
CN1C2CCC1CC(NS(=O)(=O)c1cccc(C(F)(F)F)c1)C2 (centres undefined) | -13 | -2 | 0 | 5 | 1 | 4 | 2 | i
COc1cc(CN2CCN(C(=O)c3cccc4ccccc34)CC2)cc(OC)c1O | -3 | -12 | 13 | -16 | 1 | 3 | 8 | i
CN(C)CCNc1nc(Oc2ccccc2)c2sccc2n1 | -26 | -9 | . | . | 0 | 1 | . | .
COc1cc(OC)cc(N2C(=O)CSCC2=O)c1 | 6 | . | -9 | 13 | -1 | 1 | 5 | i
CSCC(C)N1CCC(CCC(=O)NC2CC2)CC1 (centres undefined) | -8 | -8 | . | -5 | -1 | 3 | . | i
C=CCN1C(=O)/C(=C2/Sc3ccc(OC)cc3N2CC)SC1=S | 5 | -14 | 16 | -2 | -25 | 4 | 26 | i
Cc1ccc(NC(=O)C(=O)C2C(=O)Nc3ccccc32)cc1 (centres undefined) | -19 | -3 | -11 | 2 | 1 | 3 | 1 | i
OCC[C@H]1C[C@@H](O)[C@H](O)[C@]2(Cc3ccccc3O2)O1 | -7 | -16 | . | 7 | 0 | 4 | . | .
Cc1cc(-n2c(C)cc(C(=O)CSc3nncn3C(C)C)c2C)no1 | -6 | . | . | -7 | 0 | 2 | . | i
O=S(=O)(c1cnccc1N1CCN(/N=C/c2ccc(Br)cc2)CC1)N1CCCCC1 | . | -17 | -6 | -21 | 0 | -11 | 8 | i
Cc1cccc(C(=O)NNS(=O)(=O)c2ccc(F)cc2)c1 | -21 | -24 | -6 | -10 | 2 | 0 | 8 | i
NNC(=O)c1[nH]c2ccccc2c1-c1ccccc1 | -45 | -1 | -3 | 40 | -7 | -1 | -6 | i
N#CCc1nc(C(c2ccccc2)c2ccccc2)no1 | -10 | -15 | -8 | 2 | -7 | 34 | -4 | .
Cc1c(N2C(=O)CS/C2=N\N=C\c2ccccc2O)c(=O)n(-c2ccccc2)n1C | . | -23 | -8 | -2 | 1 | 4 | 1 | i
CC(=O)Oc1ccccc1C1C[C@]2(C)CC(=O)NC2N1C(C)=O (some centres undefined) | 7 | -16 | 11 | -11 | 2 | 2 | -4 | i
O=C(NCc1ccccc1)c1csc(-c2cccnc2)n1 | 28 | . | 0 | 18 | -17 | -16 | 11 | i
COc1ccc(C(=O)C(C)OC(=O)C2CC3CCCC(C2)C3=O)cc1 (centres undefined) | -13 | -4 | . | . | 2 | 3 | . | .
CCN1CCCC1CNC(=O)c1cc2ccc(OC)cc2[nH]1 (centres undefined) | 11 | -6 | 6 | 2 | -1 | 2 | 5 | i
C=CCN(CC=C)C(=O)C(=O)c1ccn(-c2c(C)csc2C(=O)OC)c1 | -25 | -5 | 4 | -12 | -13 | -7 | 9 | i
CSc1ccc(NS(=O)(=O)c2ccc(-n3cnnn3)cc2)cc1 | 35 | -1 | -2 | -7 | 3 | -10 | -20 | i
O=C(Nc1ccc2c(c1)CCC2)C1CCN(c2ncccn2)CC1 | -86 | -14 | -6 | -18 | -4 | -4 | -6 | .
O=C(O)c1ccccc1C(=O)c1ccc(F)c(F)c1 | -39 | -22 | . | . | 1 | 5 | . | .
COc1ccc(-c2coc3c(C(=O)Nc4ccc(OC)nc4)cccc23)c(C)c1 | 38 | 2 | . | . | -6 | -20 | . | .
CC[n+]1ccccc1/C=C/c1ccc(N(C)C)cc1 | ? | 1 | 97 | . | -85 | 5 | 22 | i | eIF4H inh retest=2;PABP FP inh retest=-5
C/C(Cc1ccccc1)=N\NC(=O)CNC(=O)c1cccc(Br)c1 | 15 | . | 1 | 8 | 2 | 5 | -3 | i
COC(=O)/C=C/c1ccc(OC(=O)OC)c(OC(=O)OC)c1 | -22 | . | 2 | 37 | -7 | -6 | -12 | i
C/C(=N\OC(=O)c1ccccc1)c1cc(-c2ccc(Cl)cc2)no1 | . | 0 | 2 | 1 | -1 | -1 | -20 | i
Nn1c(Cc2cccc3ccccc23)n[nH]c1=S | -10 | -20 | 12 | -6 | 6 | 2 | 9 | i
CCOC(=O)c1c(NC(=O)c2ccno2)c2cc([N+](=O)[O-])ccc2n1C | 6 | . | 2 | -8 | 0 | 4 | -4 | i
S=C(Nc1ccc(Cl)cc1Cl)NC1CCN(Cc2ccccc2)CC1 | 7 | . | -6 | 4 | 5 | -1 | 2 | i
CCCN(C(=O)CCCSc1nc2ccccc2[nH]1)c1c(N)n(Cc2ccccc2)c(=O)[nH]c1=O | -3 | -16 | . | 14 | 0 | 2 | . | i
Cc1ccc(CNC(=O)Nc2cccc(C)c2)cc1 | -25 | . | 7 | -12 | -1 | 0 | -9 | i
COc1ccc(NC(=O)CS(=O)(=O)Cc2nc(-c3ccc(C)cc3)oc2C)cc1 | 13 | . | 3 | 0 | -3 | -3 | 11 | i
COC(=O)C1CCN(C(=O)COC(=O)COc2ccc(C#N)cc2)CC1 | 13 | . | 4 | -11 | 6 | -2 | -10 | i
CCN1C[C@@H]2[C@@H]3C(=O)N(Cc4ccccc4)C(=O)[C@@H]3[C@](C)(C1=O)N2C(=O)c1ccc(C(C)(C)C)cc1 | -9 | 4 | . | . | 0 | 1 | . | .
O=C(Nc1ccc2c(c1)OCCO2)c1ccc(Cl)c(S(=O)(=O)N2CCCCC2)c1 | ? | -20 | -16 | 12 | 4 | -14 | 19 | i
Cc1ccc(/C=C/C2=NN(Cc3ccccc3Cl)C(=O)CC2)cc1 | . | -10 | -9 | -1 | 3 | -3 | 6 | i
COc1ccc(N2CC(O)=C(c3nc(-c4ccc(F)cc4)cs3)C2=N)cc1OC | 3 | . | 0 | 17 | -3 | -7 | 3 | i
COc1ccc(S(=O)(=O)Nc2ccc3c(c2)OCO3)cc1C(=O)O | -27 | -20 | -6 | 0 | 4 | 2 | -4 | i
CCOC(=O)C1CCCN(C(=O)c2ccco2)C1 (centres undefined) | -41 | -19 | 4 | -12 | 2 | 4 | -8 | i
COc1ccc(-n2ncc3c(Nc4cccc(C)c4)ncnc32)cc1 | . | 4 | -3 | -1 | 9 | -4 | 9 | i
O=C(Nc1nnc(SCCC2OCCO2)s1)C1CC(=O)N(c2ccc(F)cc2)C1 (centres undefined) | 24 | 6 | 8 | -19 | -4 | -2 | 7 | i
N/C(=N\OC(=O)Cc1ccc(Cl)cc1)c1ccccn1 | . | -30 | -5 | . | 3 | 7 | 9 | i
Cc1ccccc1S(=O)(=O)Oc1ccc2ccc(O)cc2c1 | -12 | -13 | -11 | 41 | 4 | -5 | 3 | i
O=C(NCc1ccccn1)c1ccc(CS(=O)(=O)Cc2ccc(Cl)cc2)o1 | . | -19 | -4 | 0 | 4 | 6 | -3 | i
N/C(=N\OC(=O)Cc1ccccc1)c1ccccc1Cl | -63 | . | -2 | 2 | -5 | -2 | -4 | i
CCOc1ccc(C2NC(=O)C(C#N)=C(S)N2c2ccc(C)cc2)cc1OC (centres undefined) | -172 | -19 | 0 | -14 | -3 | -1 | 11 | i
Cc1ccc(S(=O)(=O)NCCC(=O)OC(C)C(=O)NC2CC2)cc1 (centres undefined) | -16 | -3 | . | . | -3 | 0 | . | .
O=C(Nc1ccccc1F)c1cc(-c2ccco2)nc2ccccc12 | -1 | . | . | -5 | -2 | 2 | . | i
COc1ccc(C(=O)CC(=O)C(=O)Nc2ccccc2Cl)cc1 | 13 | -5 | -2 | 5 | 4 | 2 | -3 | i
COc1ccc(C(=O)c2sc(Nc3ccccc3F)nc2N)cc1 | -27 | -14 | -10 | 1 | -5 | -6 | 1 | i
O=C(Nc1cccc(-c2cccc(Cl)c2)c1)C1CCN(Cc2ccon2)CC1 | 18 | -9 | 2 | 19 | -1 | -4 | -9 | i
COc1ccc(C2CC(c3ccc(OC)cc3OC(C)=O)=NN2C(=O)c2ccccc2)cc1 (centres undefined) | 0 | -1 | -9 | 25 | -4 | -1 | -6 | i
Cc1ccsc1C(=O)OCC(=O)Nc1c(Cl)cccc1C(F)(F)F | -31 | -16 | -11 | 9 | -1 | 5 | -5 | i
CC(C)Cn1c(N)c(C(=O)NCC2CCCO2)c2nc3ccccc3nc21 (centres undefined) | . | -9 | 6 | 5 | -5 | 3 | 8 | i
CC(C)C[C@H](NC(=O)c1nc[nH]c1C(=O)NCCCCCNC(=O)OC(C)(C)C)C(=O)OCc1ccccc1 | 20 | -8 | 21 | 0 | 3 | 2 | 0 | i
Next part
SMILES | Env fusion inh | Yeast UUG start | eIF4H inh | CSC inhib | MT1-MMP act inh | MT1-MMP act inh RFP | PABP FP inh | Rce1 inhib | others
CCc1ccc(-c2nc(CN3CCC(C(=O)NCc4ccc(F)cc4)CC3)c(C)o2)cc1 | -43 | -4 | 1 | 16 | 6 | -8 | 7 | i
O=C1C[C@H]2[C@H](CO)[C@@H](OC(=O)c3ccc(-c4ccccc4)cc3)C[C@H]2O1 | -31 | 28 | 1 | -6 | 10 | -2 | -3 | i
CN(C)S(=O)(=O)c1ccc(C(=O)NNc2nc(-c3ccccc3)c3cc(Br)ccc3n2)cc1 | 4 | . | 16 | 17 | -2 | -8 | 8 | i
Cc1cc(NC(=O)CSc2ncc(C(=O)O)n2-c2ccc(F)cc2)no1 | 6 | -12 | . | -7 | -2 | 6 | . | .
C=CCn1c(SCC(=O)Nc2c(C)n(C)n(-c3ccccc3)c2=O)nc2scc(-c3ccccc3)c2c1=O | -63 | 9 | -6 | -15 | -12 | -17 | 3 | i
COc1ccc(-c2c(-c3ccc(OCC(=O)NN)cc3O)n[nH]c2C)cc1OC | -86 | -28 | -11 | -2 | 0 | 4 | -6 | i
O=C1CN(C(=O)COC(=O)CNC(=O)c2ccc(Br)o2)c2ccccc2N1 | 20 | . | -1 | . | 0 | 1 | 1 | i
CCN(C(=O)CSc1nnnn1-c1ccccc1)c1c(N)n(Cc2ccccc2)c(=O)[nH]c1=O | -48 | . | -4 | 0 | 2 | 6 | 13 | i
